Marburg entry inh: inhibitors of Marburg virus binding or cell entry; Potency, µM (series often up to 37.8 µM), without a hit: at the top dose activity change, negative = inhibition, hits mostly inhibitors; hit rate 1.8% among 300,000; Marburg virus pseudotyped entry inhibition, cell reporter; control for the full effect not named in the record; about a third of the inactives were read at about 46 µM; AID 540276; active = well fitted inhibition curve with a large enough effect; inconclusive = small, poorly fitted or top-dose-only effect, or effect the other way; inactive = flat fitted curve, though single readings scatter; tested in HEK293 cells; about a fifth of its hits are not listed in these tables; also: % is scaled to controls: 0 for no effect and ±100 for the full control effect; luciferase read-out
Cruzain inh noDet: cruzain (T. cruzi) inhibition without detergent; Potency, µM, for the others: max response, negative = inhibition, usual class: inhibitors; AID 1476; hit rate 2.3% among 200,000; P25779; purified cruzain, Z-FR-AMC fluorescence, no detergent;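 also: plate controls were enzyme without inhibitor for no effect and buffer without enzyme for full effect; nearly all actives have a fitted effect of over 40% in size; top concentration of the series not given in the record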
Target sequence (P25779 123-467 limits assumed): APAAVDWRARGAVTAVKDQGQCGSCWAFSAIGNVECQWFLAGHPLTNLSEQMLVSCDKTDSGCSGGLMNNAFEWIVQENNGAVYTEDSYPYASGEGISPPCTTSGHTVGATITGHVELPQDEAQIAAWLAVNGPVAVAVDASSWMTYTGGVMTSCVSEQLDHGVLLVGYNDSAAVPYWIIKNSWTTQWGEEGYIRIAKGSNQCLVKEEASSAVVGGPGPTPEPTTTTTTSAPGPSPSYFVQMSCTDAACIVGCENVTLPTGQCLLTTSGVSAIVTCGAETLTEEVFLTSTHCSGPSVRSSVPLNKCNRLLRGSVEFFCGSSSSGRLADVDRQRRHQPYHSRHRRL
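Detergent-free condition (0.00005% Triton X-100) in acetate buffer pH 5.5 with DTT. 1.5 nM enzyme and compound were pre-mixed 15 min, then 2 uM Z-FR-AMC substrate added; reaction progress from fluorescence change between first and third reads (60 s).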
StopGo reporter: lowers the luciferase signal of an FMDV 2A StopGo reporter; human cells with a luciferase reporter of 2A StopGo recoding; control for the full effect not named in the record; Potency, µM (highest dose often 57.9 µM), for inactives: at the top dose signal change, negative = less light; hit rate 1.2% among 410,000; active = well fitted falling curve with a large enough effect; inconclusive = small, poorly fitted or top-dose-only effect; inactive = no such curve, though single readings can be large or run the other way; tested in HEK293T cells; also: % is scaled to controls: 0 for no effect and ±100 for the full control effect; nearly all actives have a fitted effect of over 45% in size; luciferase light after 4 h
Cruzain Triton: blocks cruzain activity in presence of Triton detergent. hit rate 0.43% among 200,000. P25779. Potency, µM, inactives show max response, negative = inhibition, hits mostly inhibitors. AID 1478. purified cruzain, Z-FR-AMC fluorescence, 0.01% Triton;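 also: plate controls were neutral wells for no effect and buffer without enzyme for full effect; nearly all actives have a fitted effect of over 40% in size; top concentration of the series not given in the record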
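Sodium acetate buffer (100 mM, pH 5.5) containing 5 mM DTT and 0.01% Triton X-100 hosted 1.5 nM cruzain and test compound for 15 min at room temperature. Cleavage of 2 uM Z-FR-AMC was then tracked by fluorescence.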
NS1 inh: inhibitors of influenza NS1 protein function; S. cerevisiae slowed by influenza A NS1, growth recovery by OD600; Potency, µM (titrated, usually from 46.1 µM), for inactives: at the highest dose activity, positive = more growth; hit rate 0.4% among 270,000; AID 2326; active means well fitted rising curve with a large enough effect; inconclusive means small, poorly fitted or top-dose-only effect; inactive means no such curve, though single readings can be large or run the other way; also: nearly all actives have a fitted effect of over 50% in size
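Growth recovery, yeast-based: influenza A NS1 expressed in S. cerevisiae causes slow growth, and suppressors are detected by OD600. The parent strain without NS1 is used as positive control.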
RE007 growth inh: less growth of the S. pombe RE007 Vpr strain | S. pombe RE007 Vpr strain, BacTiter-Glo ATP luminescence, 24 h; control for the full effect not named in the record | AID 651644 | hit rate 0.21% among 360,000 | Potency, µM (top dose mostly 92.2 µM), for inactives: at the highest dose activity change, negative = less growth; active = well fitted falling curve with a large enough effect; inconclusive = small, poorly fitted or top-dose-only effect; inactive = no such curve, though single readings can be large or run the other way;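 also: % is scaled to controls: 0 for no effect and ±100 for the full control effect; nearly all actives have a fitted effect of over 50% in size; the assay follows cell death caused by Vpr and the record does not say whether a fall means rescue or toxicity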
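Fission yeast strain RE007, carrying one chromosomally integrated HIV-1 vpr copy, was seeded at OD 0.01 in PMG+AL medium with 23 nL pinned compound. After 24 h at 30 °C and 99% humidity, viability was read by BacTiter-Glo luminescence.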
SARS PLP yeast: SARS-CoV PLP inhibition in yeast. S. cerevisiae expressing SARS-CoV PLpro, growth rescue; control for the full effect not named in the record. Potency, µM (series often up to 32.9 µM), for the others: top-dose activity, positive = growth rescue. AID 485353. hit rate 0.19% among 330,000; active means well fitted rising curve with a large enough effect; inconclusive means small, poorly fitted or top-dose-only effect; inactive means no such curve, though single readings can be large or run the other way; also: 0% is about no effect; nearly all actives have a fitted effect of over 55% in size; growth read by luminescence after 48 h
LASV entry inh: inhibitors of Lassa virus binding or cell entry. Potency, µM (series often up to 37.9 µM), for inactives: top-dose activity change, negative = inhibition, hits mostly inhibitors. hit rate 1.2% among 300,000. Lassa virus pseudotype entry inhibition, cell reporter; control for the full effect not named in the record; active means well fitted inhibition curve with a large enough effect; inconclusive means small, poorly fitted or top-dose-only effect, or effect the other way; inactive means flat fitted curve, though single readings scatter; tested in HEK293 cells; also: % is scaled to controls: 0 for no effect and ±100 for the full control effect; nearly all actives have a fitted effect of over 50% in size; luciferase read-out
Active calls of the source: *; ? = inconclusive; · = no result given; [ ] = another dose, or the depositor's remark. Unless noted, calls follow the shape of the dose curve; as a rule, active = well fitted curve in the direction sought with a large enough effect; inconclusive = small, poorly fitted or top-dose-only effect, or another doubt; inactive = no such curve, though single readings can be large; an effect the other way counts as inactive or inconclusive. Potency is read from the fitted curve at half-maximal effect.

SMILES	Marburg entry inh	Cruzain inh noDet	StopGo reporter	Cruzain Triton	NS1 inh	RE007 growth inh	SARS PLP yeast	LASV entry inh
CCCS(=O)(=O)C(=C1NCCO1)S(=O)(=O)CCC	11%	-9%	?	0.2%	-14%	22%	10%	4%
CCNC(=S)N1CCN(CCN=CC2=C(O)CC(c3ccco3)CC2=O)CC1 (configuration not stated)	8%[46.1 µM]	3%	-24%	4.2%	5%	-18%	3%	-2%
O=C(O)CCC(=O)NCC(=O)c1ccc(F)cc1	6%	·	-16%	·	5%	-9%	0%	-5%
O=C(Nc1ccc(CN2CCS(=O)(=O)CC2)cc1)c1ccc(F)cc1	·	·	-8%	·	-3%	25%	-1%	·
CN(CC(=O)Nc1ccccc1Cl)C(=O)COC(=O)CSc1ccc(F)cc1	15%	·	-11%	·	·	0%	-8%	-23%
CCc1nnc(NC(=O)CSCc2cc(=O)n3cc(C)sc3n2)s1	·	·	3%	·	9%	7%	-3%	·
O=C(NCCc1ccccc1)c1ccc(NC(=O)c2cccnc2)cc1	·	·	24%	·	5%	8%	1%	·
COc1cc2c(C#N)c(N3CCOCC3)nc(N)c2c(N)n1	?	2%	-17%	-4.5%	9%	-4%	-3%	-12%
CC(C)(C)NC(=O)NC(=O)CN1CCC(Cc2ccccc2)CC1	-2%[46.1 µM]	·	?	·	·	32%	-1%	-5%
O=C(CN1CCN(c2ccc(F)cc2)CC1)NCc1ccc(Cl)cc1	·	·	-3%	·	-10%	6%	-4%	·
Cc1ccc(C(C)C)c(OCC(=O)OCC(=O)NC2CC2)c1	14%[46.1 µM]	·	17%	·	·	6%	-6%	18%[46.1 µM]
CCn1c(CC(=O)Nc2ccccc2F)nnc1SCC(=O)N1CCOCC1	-15%	·	-13%	·	12%	28%	-2%	1%
O=C(c1cc(-c2ccccc2)nc2ccccc12)N1CCCc2ccccc21	?	-16%	-7%	-4.8%	1%	21%	-38%	-11%
COC(=O)c1c(C)oc2c1cc(NS(=O)(=O)c1cccs1)c1ccccc12	?	-1%	-7%	-1.1%	3%	-1%	11%	-17%
CCOc1ccc(NS(=O)(=O)c2cccc(C(=O)NCC3(N(C)C)CCCCC3)c2)cc1	11µM*	·	2%	·	·	-6%	4%	?
Fc1ccc(NCc2nnc3n2CCCCC3)cc1Cl	·	-1%	-19%	2.9%	·	·	·	-22%[46.1 µM]
COC(=O)c1cc(COC(=O)COc2ccc(C)c(C)c2)oc1C	0%[46.1 µM]	·	-1%	·	-16%	-7%	4%	5%[46.1 µM]
CCC(CC)C(=O)Nc1c2c(nn1-c1ccc(F)cc1)CS(=O)(=O)C2	11%[46.1 µM]	·	3%	·	3%	4%	-3%	·
Cc1ccc(C)c(Cn2c(=O)n(-c3ccc(Cl)cc3)c(=O)c3c(C)c(C)sc32)c1	6%[46.1 µM]	-6%	-17%	0.5%	·	·	·	?
O=C(COC(=O)/C=C/c1cccc(Cl)c1)Nc1ccccc1-c1ccccc1	-2%	-8%	·	-4.1%	-9%	·	11%	-5%
Cc1cc(C(=O)NNC(=O)c2nn(C)c(=O)c3ccccc23)c(C)o1	·	·	-7%	·	2%	-2%	-3%	·
O=c1oc2c3c(ccc2c2ccccc12)OCN(Cc1ccccc1Cl)C3	?	-10%	28%	-2.9%	·	·	·	4%[46.1 µM]
CCOc1ccccc1NC(=O)CSc1cc(=O)n(CC)c2ccccc12	?	30%	-21%	0.1%	·	·	·	?
CCCn1cc(CN2CCCC(C(=O)c3ccc4c(c3)OCO4)C2)c(C)n1 (configuration not stated)	·	·	-9%	·	1%	-8%	2%	·
O=C(CS(=O)(=O)c1ccccc1)NCc1ccccc1	5%[46.1 µM]	·	11%	·	5%	-3%	?	14%[46.1 µM]
CC(=O)Nc1cc2nc(C)n(Cc3ccc([N+](=O)[O-])cc3)c2nc1C	?	·	-3%	·	?	-9%	2%	1%
CSC[C@H](NC(=O)Cc1c(C)c2cc3c(C)c(C)oc3cc2oc1=O)C(=O)N[C@@H](Cc1ccccc1)C(=O)O	·	·	-21%	·	18%	-12%	-3%	·
CCSc1nc(=S)n(Cc2ccccc2)c(C)c1C(C)=O	-12%	-3%	?	-5.0%	8%	17%	-1%	17%
COc1cc(NC(=O)C2CCC(CNS(=O)(=O)c3csc(C(N)=O)c3)CC2)cc(OC)c1 (configuration not stated)	·	·	4%	·	2%	14%	0%	·
O=c1[nH]c(/C=C/c2cccnc2)c([N+](=O)[O-])c(=O)[nH]1	-5%[46.1 µM]	·	-2%	·	·	12%	-1%	8%
Cc1cc(NC(=O)CSc2nc(-c3ccccc3)cs2)no1	29%	-16%	-8%	1.1%	-8%	-10%	-5%	0%
COc1ccc(C(=O)N(C)Cc2ccc(C)o2)cc1OC1CCN(C(C)=O)CC1	2%[46.1 µM]	·	18%	·	-4%	7%	1%	0%[46.1 µM]
C1CN(c2nc3nonc3nc2N2CCOCC2)CCO1	0%	-5%	·	-3.7%	4%	·	1%	·
O=S(=O)(NCCc1csc2nc(-c3ccccc3)nn12)c1ccc(Cl)s1	·	-18%	48%[activator]	-5.0%	·	·	·	-9%[46.1 µM]
COc1ccc(OC(C)C(=O)NCCc2nc3ccccc3[nH]2)cc1 (configuration not stated)	1%	-7%	0%	-6.0%	4%	3%	-2%	12%
Cc1ccc(CNC(=O)c2cc(S(=O)(=O)N3CCCCCC3)cn2C)cc1	·	-4%	-25%	-18%	·	·	·	3%[46.1 µM]
Cc1cccc(C)c1OC(=O)CN(c1ccc(Cl)cc1)S(C)(=O)=O	-15%	-6%	-29%	-8.9%	0%	-20%	-1%	?
COc1ccccc1NC(=O)CSc1ncn(-c2ccccc2)n1	?	-7%	-13%	-1.3%	-1%	6%	1%	9%
O=c1cc(Br)c(O)c(Br)cc1Br	9%[46.1 µM]	·	25%	·	·	-14%	·	-13%[46.1 µM]
COc1ccc(-c2noc(CCC(=O)NC3CCCCC3)n2)cc1OC	1%	2%	18%	-3.7%	-2%	3%	2%	4%

One compound at a time (already shown). Screens in order: Marburg entry inh, Cruzain inh noDet, StopGo reporter, Cruzain Triton, NS1 inh, RE007 growth inh, SARS PLP yeast, LASV entry inh
Record of Cc1cccc(C)c1OC(=O)CN(c1ccc(Cl)cc1)S(C)(=O)=O → -15%, -6%, -29%, -8.9%, 0%, -20%, -1%, ?
Record of O=c1cc(Br)c(O)c(Br)cc1Br → 9%[46.1 µM], ·, 25%, ·, ·, -14%, ·, -13%[46.1 µM]

Remaining list, next part:
SMILES	Marburg entry inh	Cruzain inh noDet	StopGo reporter	Cruzain Triton	NS1 inh	RE007 growth inh	SARS PLP yeast	LASV entry inh
Nc1ccc(CNc2ncn[nH]2)cc1	·	·	-1%	·	-6%	10%	2%	·
COc1ccc(NC(=S)NC(=NS(=O)(=O)c2ccc(Cl)cc2)c2ccccc2)cc1	?	·	51%[activator]	·	·	-5%	0%	?
COc1ccc(/C=C/C(=O)c2ccc3ccccc3c2O)cc1CN1CCOCC1	2%	?	?	-23%	0%	-6%	-16%	19%
CCCOc1ccc(C(=O)OCCN2CCCCC2)c(O)c1	-3%[46.1 µM]	·	14%	·	·	-14%	·	-1%
CCNC(=O)c1cnn(-c2ccccc2)c1-c1ccccc1	·	·	-8%	·	0%	-4%	-1%	·
O=C1COc2ccc(C(=O)c3ccccc3C(=O)O)cc2N1	?	-1%	-3%	-3.4%	9%	0%	-23%	2%
CCCOc1ccc(-c2nc3c(c(=O)[nH]c(=O)n3Cc3ccccc3)n2CCO)cc1OCC	?	·	-16%	·	3%	-8%	1%	?
O=C(O)CN1C(=O)/C(=C\c2cc(Br)ccc2OCc2ccc(Cl)cc2)SC1=S	·	·	-13%	·	-2%	1%	1%	·
CC(=O)c1ccc(NC(=O)CCc2ccc(C)o2)cc1	?	·	23%	·	7%	20%	-4%	0%[46.1 µM]
CCCCc1ccc(NC(=O)CN2C(=O)NC(Cc3ccccc3)C2=O)cc1 (configuration not stated)	-18%[46.1 µM]	·	15%	·	·	10%	-3%	-16%
CCOC(=O)C1CCN(C(=O)CSC2=NCCS2)CC1	20%	-6%	21%	2.0%	-3%	-4%	3%	2%
Cc1ccc(C(=O)N/N=C/c2ccoc2)cc1C	·	·	51%[activator]	·	-11%	14%	-8%	·
COc1ccc2c(c1)NC(c1ccc(F)cc1)=NC(c1ccc(F)cc1)=N2	4%[46.1 µM]	?	-3%	-3.4%	·	·	·	3%[46.1 µM]
Cc1cccc(-n2nc3c(c2NC(=O)c2ccco2)CS(=O)(=O)C3)c1C	18%[46.1 µM]	·	-15%	·	·	22%	2%	2%
COc1ccc(S(=O)(=O)N2CCCCC2)cc1NS(=O)(=O)c1ccc(CNC(C)=O)cc1	0%	·	15%	·	·	24%	-47%	1%
COc1ccc(OCC(=O)c2c(O)c3ccccc3oc2=O)cc1	-10%	-6%	19%	0.2%	-39%	7%	-3%	20%
O=C(Nc1ccc(Cl)c(Cl)c1)C1=Cc2ccccc2OC1	?	-18%	21%	-2.5%	-11%	-29%	-47%	?
CCOC(=O)C1CCCN(C(=O)Cn2ncc3c(C)n(Cc4ccc(Cl)cc4)c(C)c3c2=O)C1 (configuration not stated)	3%[46.1 µM]	10%	18µM*	-0.3%	·	·	·	-2%[46.1 µM]

4 of the compounds above, with values under each structure:
Fields – Marburg entry inh	Cruzain inh noDet	StopGo reporter	Cruzain Triton	NS1 inh	RE007 growth inh	SARS PLP yeast	LASV entry inh
COc1ccc(S(=O)(=O)N2CCCCC2)cc1NS(=O)(=O)c1ccc(CNC(C)=O)cc1
 : 0%	·	15%	·	·	24%	-47%	1%
COc1ccc(OCC(=O)c2c(O)c3ccccc3oc2=O)cc1
 : -10%	-6%	19%	0.2%	-39%	7%	-3%	20%
O=C(Nc1ccc(Cl)c(Cl)c1)C1=Cc2ccccc2OC1
 : ?	-18%	21%	-2.5%	-11%	-29%	-47%	?
CCOC(=O)C1CCCN(C(=O)Cn2ncc3c(C)n(Cc4ccc(Cl)cc4)c(C)c3c2=O)C1 (configuration not stated)
 : 3%[46.1 µM]	10%	18µM*	-0.3%	·	·	·	-2%[46.1 µM]

Compound activity from PubChem.
